Six1-Eya2 blk: inhibitors of human Six1/Eya2 interaction; AlphaScreen GST-Six1/His-Eya2 binding, biochemical; active compounds read low; control for the full effect not named in the record; activity change, % (test concentration not listed); 360,000 compounds, 0.56% hits; Q15475+O00167; in the data active = activity change below about -65%; inconclusive = about -30% to -65%; inactive = above about -30%; further: on the % scale 0 is the no-effect control and ±100 the full control effect
Target sequence (O00167 whole entry, looked up): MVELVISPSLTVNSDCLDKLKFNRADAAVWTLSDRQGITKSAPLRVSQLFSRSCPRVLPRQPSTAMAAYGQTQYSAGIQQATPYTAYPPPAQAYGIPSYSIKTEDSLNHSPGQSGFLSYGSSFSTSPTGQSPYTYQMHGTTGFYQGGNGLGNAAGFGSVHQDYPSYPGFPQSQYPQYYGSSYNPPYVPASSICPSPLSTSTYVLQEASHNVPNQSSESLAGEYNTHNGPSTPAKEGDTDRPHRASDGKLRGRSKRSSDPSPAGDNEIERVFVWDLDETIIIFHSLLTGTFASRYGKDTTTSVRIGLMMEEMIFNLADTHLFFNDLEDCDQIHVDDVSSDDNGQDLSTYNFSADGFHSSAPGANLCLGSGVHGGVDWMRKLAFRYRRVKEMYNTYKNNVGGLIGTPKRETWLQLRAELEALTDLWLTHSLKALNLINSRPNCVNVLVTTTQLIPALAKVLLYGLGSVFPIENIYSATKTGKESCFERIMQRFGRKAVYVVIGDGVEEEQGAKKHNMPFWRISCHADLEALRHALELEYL
Target sequence (Q15475 whole entry, looked up): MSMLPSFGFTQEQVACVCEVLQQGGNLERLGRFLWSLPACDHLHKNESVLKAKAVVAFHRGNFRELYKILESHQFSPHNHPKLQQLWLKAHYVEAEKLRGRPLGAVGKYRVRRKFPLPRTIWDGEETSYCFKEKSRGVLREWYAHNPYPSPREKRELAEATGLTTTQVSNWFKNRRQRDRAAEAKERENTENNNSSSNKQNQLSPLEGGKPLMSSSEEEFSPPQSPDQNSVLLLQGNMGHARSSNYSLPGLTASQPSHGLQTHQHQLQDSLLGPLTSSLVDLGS
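Compounds are tested against tagged Six1 and Eya2 proteins bridged by glutathione donor and nickel acceptor beads; after a one-hour incubation at 37 °C without light, AlphaScreen emission is recorded.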
D2 ag: human D2 receptor agonism in beta-arrestin assay. activation, % (concentration not given with the values). DiscoveRx PathHunter D2 beta-arrestin, luminescence, 90 min; 100% = 57 uM dopamine signal. 360,000 compounds, 0.084% hits; in the data active = activation above about 40%; inconclusive = about 15% to 40%; inactive = below about 15%; further: the text of the record calls up to 30% inactive
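DiscoveRx PathHunter D2 beta-arrestin cells (2,100/well) attached overnight, then compound-stimulated 90 min at 37 C in HBSS/10 mM HEPES/0.1% Tween-20 buffer; beta-galactosidase complementation read by luminescence after 1 h at ambient temperature. Dopamine 57 uM final (EC100) as control.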
D2 PAM: potentiates the human D2 dopamine receptor allosterically. DiscoveRx D2 beta-arrestin cells, luminescence, 90 min; 100% = 57 uM dopamine signal. 360,000 compounds, 0.23% hits. potentiation, % (no concentration beside the values); active = potentiation of 50% or more; inconclusive = 30% to 50%; inactive = 30% or less;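 further: compound concentration not given in the record; tested on top of an EC20 dose of dopamine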
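PathHunter D2 cells, attached overnight at 37 deg C, received compound in DMSO plus dopamine at EC20 (50 nM final) for 90 min at 37 deg C. Beta-arrestin recruitment was read as luminescence after 1 h with detection reagent at ambient temperature.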
CtBP-E1A inh: blocks the CtBP interaction with E1A; 340,000 compounds, 0.49% hits; activity change, % (test concentration not listed); AlphaScreen GST-E1A/His-CtBP binding, 1536-well; active compounds read low; control for the full effect not named in the record; AID 651724; in the data active means activity change below about -65%; inconclusive means about -30% to -65%; inactive means above about -30%; further: on the % scale 0 is the no-effect control and ±100 the full control effect
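Protein mix (5X: 125 nM each GST-E1A, His-CtBP) was incubated with pinned compound 2 h at 37 deg C in dark, in 50 mM Tris pH 8.0 buffer with 300 mM NaCl. Glutathione donor and nickel acceptor beads followed; AlphaScreen signal read after 1 h.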
gsp ag: agonists of gsp mutant (McCune-Albright syndrome) | AID 624287 | gsp mutant cells, cAMP HTRF, 30 min; control for the full effect not named in the record | 340,000 compounds, 0.13% hits | Potency, µM (series often up to 76.9 µM), inactives show at the top dose activation (cAMP increase), most hits filed as activators; active = well fitted activation curve with a large enough effect; inconclusive = small, poorly fitted or top-dose-only effect, or another doubt; inactive = no such curve, though single readings can be large or run the other way; cell line not stated here;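 further: phosphodiesterase inhibitor Ro 20-1724 added with compounds to block cAMP breakdown; potency means the concentration at half of the fitted maximal effect; nearly all actives have a fitted effect of over 60% in size; about a fifth of the inactives were tested at one dose only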
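Cells stably selected in G418 were plated at 2000/well, grown 16-24 hr, then given compounds in DMSO with the PDE inhibitor […] (300 uM solution added) for 30 min at 37C; cAMP was read by HTRF.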
gsp antagonist: antagonizes gsp, the McCune-Albright syndrome mutation; gsp-mutant cells, cAMP HTRF, 30 min; control for the full effect not named in the record; Potency, µM (series often up to 76.9 µM), without a hit: at the top dose activity change, negative = inhibition, actives largely listed as inhibitors; 340,000 compounds, 0.4% hits; active = falling curve of any shape with a large fitted effect; inconclusive = falling curve, mostly with a smaller effect; inactive = flat or rising curve; cell line not stated here;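 further: intracellular cAMP measured with PDE inhibitor Ro 20-1724 present during compound exposure; potency means the concentration at half of the fitted maximal effect; on the % scale 0 is the no-effect control and ±100 the full control effect; nearly all actives have a fitted effect of over 65% in size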
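HTRF cAMP measurement after 30 min RT detection following 30 min, 37C compound treatment alongside […] (added as 300 uM solution) in G418-selected cells seeded at 2000/well and grown 16–24 h.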
* = called active by the depositor; ? = inconclusive; · = no result given; [ ] = dose if it differs, or a comment.

SMILES | Six1-Eya2 blk | D2 ag | D2 PAM | CtBP-E1A inh | gsp ag | gsp antagonist
CCC12CN3CCN(CC(C3)/C1=N\NC(=O)Nc1ccccc1)C2 | -4 | 0.9 | 0 | 1 | -12%[15.4 µM] | 7%
COc1ccc(NC(=O)c2ccc(C)cc2)cc1 | 5 | -4.9 | -7 | · | -9% | -5%
CC(C)C[C@H]1CNC(=S)N1CC1CCCN1C[C@H](CC(C)C)N1C[C@H](Cc2ccc(O)cc2)N(CC2CCCCCC2)C1=S (stereo partly drawn) | -3 | -0.5 | -4 | -14 | · | -7%
O=C1CC(c2c[nH]c3ccccc23)C(=O)N1c1ccccc1 (stereo not drawn) | -5 | -0.3 | 17 | 3 | -1% | -3%
CCCN1C(=O)c2cc(C(=O)Nc3ccc(OC)cc3OC)ccc2C1Nc1ccc(OC)cc1OC (stereo not drawn) | ? | -6.1 | 9 | ? | -53%[inhibitor] | -19%
CCCCn1ccnc1C(=O)c1cc(S(=O)(=O)N2CCOCC2)ccc1C | 2 | 6.1 | 11 | 4 | -3% | ?
Cc1ccn2cc(CCNC(=O)C3CCCCC3)nc2c1 | 2 | -1.6 | -3 | 1 | -18% | 9%
Cc1nc(Nc2ccc3c(c2)OCCO3)c2nnn(Cc3ccccc3Cl)c2n1 | -7 | -0.5 | -14 | -1 | 12% | -9%
Cc1ccc(/C=C/C(=O)Nc2ccc(Oc3ccccc3)cc2)o1 | -6 | 0.8 | 0 | -4 | ? | -13%
CCN(C(=O)COc1nc(C)cc(C)c1C#N)c1ccccc1 | 3 | 2.3 | -7 | -2 | 0%[15.4 µM] | 2%
O=C(NCCN1CCOCC1)c1cc2cc([N+](=O)[O-])ccc2s1 | 7 | -4.6 | -11 | -6 | 28%[15.4 µM] | 0%
CCOc1cc2ccccc2cc1C(=O)Nc1ccccn1 | -7 | 6.4 | -6 | -7 | 29% | 5%
Cc1ccc(C(=O)COC(=O)C(C)N2C(=O)C3C4C=CC(C4)C3C2=O)cc1 (stereo not drawn) | 2 | -1.4 | 5 | 5 | 28% | 14%
CCOC(=O)c1cc(-c2ccccc2)sc1NC(=O)CC | 18 | -1.5 | -19 | 23 | ? | 17%
Cc1cc(C)cc(OCCNC(=O)CCc2ccccc2)c1 | 11 | -9.5 | -6 | 10 | 14%[15.4 µM] | -12%
O=C(COc1cc2oc(=O)c3c(c2cc1Cl)CCC3)NCc1ccccn1 | 2 | 0.0 | -10 | 2 | ? | 5%
O=C(O)c1nccnc1C(=O)Nc1ccccc1-c1ccccc1 | 5 | 1.9 | 0 | 7 | -1% | 8%
O=C(Cc1ccc(Cl)cc1)N1CCc2ccccc2C1 | 8 | -4.5 | -15 | · | 24% | 0%
COc1ccc(-c2csc(NC(C)c3nc4cc(Cl)c(N5CCCCC5)cc4n3CCCO)n2)cc1 (stereo not drawn) | 5 | 0.8 | -3 | 14 | -24% | -8%
Cc1cccc(C(=O)CC(=O)c2cc(Cl)ccc2O)c1 | -8 | -1.5 | -12 | 3 | -14% | ?
CC(C)NC(=O)c1ccc(Cl)cc1Cl | 1 | 2.6 | -3 | 4 | 7% | 6%
N=C(c1ccc([N+](=O)[O-])cc1)N1CCCCC1 | 10 | 6.4 | -9 | · | -58%[inhibitor] | 8%
C/C(=C\C(=O)c1ccc(Cl)cc1)NCc1ccc2c(c1)OCO2 | 5 | 0.0 | -9 | 11 | -4% | -14%
Cc1ccc(NC(=O)c2cccnc2)cc1S(=O)(=O)N1CCOCC1 | -14 | -3.9 | -8 | -3 | 13%[15.4 µM] | -4%
CCOc1ccc(C(=O)CCC(=O)NC(C)C(=O)OC)cc1 (stereo not drawn) | 8 | -1.6 | -1 | -1 | 11% | -1%
CCOC(=O)N/N=C/c1cn(Cc2ccccc2Cl)c2ccccc12 | -2 | 6.5 | -1 | -3 | 2% | -27%
Cc1ccc([C@H]2N[C@]3(CCCN(Cc4ccc(Cl)cc4)C3=O)[C@H]3C(=O)N(C)C(=O)[C@@H]23)cc1 | 9 | 2.7 | -12 | 6 | -37%[inhibitor] | ·
CC(=O)Nc1ccc(S(=O)(=O)N(C)CC(=O)OCC(=O)Nc2cc(C)on2)cc1 | 6 | -4.1 | -6 | -5 | -4% | 13%
N#CCCN(C(=O)COC(=O)c1ccc2c(c1)NC(=O)CS2)c1ccc2c(c1)OCCO2 | 4 | -1.0 | -4 | -4 | -26% | -4%
Cc1cc(C)cc(NC(=O)Oc2ccccc2N2CCCCC2)c1 | 7 | -1.9 | -2 | 5 | 9%[15.4 µM] | 10%

Taken from above:
In gsp ag, Cc1ccc(C(=O)COC(=O)C(C)N2C(=O)C3C4C=CC(C4)C3C2=O)cc1 (stereo not drawn) reads 28%
In gsp antagonist, O=C1CC(c2c[nH]c3ccccc23)C(=O)N1c1ccccc1 (stereo not drawn) reads -3%

(list continues)
SMILES | Six1-Eya2 blk | D2 ag | D2 PAM | CtBP-E1A inh | gsp ag | gsp antagonist
CC(C)C(NC(=O)c1c(F)cccc1F)C(=O)N1CCN(c2ncccn2)CC1 (stereo not drawn) | 5 | -3.3 | 8 | · | -21% | 5%
Cc1ccc(NC(=O)CN(C)C(=O)c2cc(-c3ccccc3)nn2-c2ccccc2)cc1 | -16 | -8.2 | -2 | -3 | -6% | ?
Cc1ccc(-c2ccnc3cc(C)nn23)cc1 | 17 | -4.8 | 1 | · | 1% | -4%
COc1ccc(NC(=O)N2CCCC(C(=O)Nc3cccc(C)c3C)C2)cc1 (stereo not drawn) | 1 | 4.4 | -3 | 6 | -2% | -9%
COC(=O)c1ccc(C23CC4(C2)[C@H](CN(C)[C@@H]4c2ccccc2)C3c2ccc(Cl)nc2)cc1 (stereo partly drawn) | -23 | -0.9 | -4 | -14 | · | -7%
Cc1oc(-c2ccc(Cl)cc2)nc1CS(=O)CC(=O)NC1CC1 (stereo not drawn) | -1 | -0.8 | -10 | · | ? | -1%
Cc1ccc(S(=O)(=O)N2C[C@@H](C)[C@]3(C2)[C@H](O)[C@H](OC(=O)NC2CC2)C[C@H]2C(=O)N(c4ccccc4)C(=O)[C@H]23)cc1 | 0 | -4.1 | 6 | 4 | -5% | ·
CC(=O)c1cccc(NC(=O)CSCc2ccc(Br)cc2)c1 | -5 | -3.8 | -31 | -27 | -27% | -17%
COc1ccccc1-c1cnc(C(O)c2ccc(Cl)cc2)[nH]1 (stereo not drawn) | 4 | -6.7 | -9 | 11 | · | ·
CC(=O)COc1cc(C)cc2oc(=O)c(C)c(C)c12 | 4 | -2.8 | -19 | 1 | 20% | 2%
O=C(Nc1ccccn1)c1ccccc1 | 11 | -2.7 | -9 | 3 | 17% | 10%
CCN1CCC(NC(=O)Nc2cc(Cl)ccc2OC)CC1 | -9 | -2.1 | -13 | -6 | 11% | -10%
O=C(CNC(=O)c1ccco1)NCC(=O)OCc1cccc(Cl)c1 | 4 | -5.3 | -12 | 0 | -8% | 3%
O=C(CSc1nc(-c2ccccc2)cc(=O)[nH]1)Nc1ccc(Br)cc1 | 12 | -0.5 | -2 | -15 | 8%[15.4 µM] | -1%
COc1ccc(C2CC(c3cccs3)=NN2C(=O)CSc2nncn2C)cc1OC (stereo not drawn) | -5 | -7.2 | -3 | -2 | 7% | -8%
CN(CC1CCCO1)S(=O)(=O)c1ccc(C(=O)N2CCN(c3ccccc3)CC2)cc1 (stereo not drawn) | 2 | 0.1 | 0 | 6 | -22% | 10%
CC(Sc1nnc(-c2cccnc2)n1C)C(=O)N1CCOCC1 (stereo not drawn) | 0 | -4.2 | -16 | 0 | -16% | 13%
Cn1c(SCC2CCCO2)nnc1-c1ccncc1 (stereo not drawn) | 2 | 0.7 | 4 | 10 | 3% | 10%
CN(Cc1nc2ccccc2n1C)S(C)(=O)=O | -2 | -0.2 | -4 | 6 | 3% | -10%
CC(=O)c1cccc(NC(=S)N2CCN(CCN3C(=O)c4cccc5cccc(c45)C3=O)CC2)c1 | 1 | -1.6 | 0 | 10 | -2% | 1%
O=C(O)c1cccc2c1C(=O)c1cc(Br)ccc1S2(=O)=O | -2 | -2.1 | -2 | 2 | · | -4%
CS(=O)(=O)N(CC(=O)NCCSc1ccccc1)c1ccc2c(c1)OCO2 | 4 | -1.6 | -18 | 4 | ? | 8%
O=C(NC1CCCC1)C(c1ccco1)N(C(=O)c1ccco1)c1ccccc1 (stereo not drawn) | 0 | -1.3 | -5 | 0 | -22%[15.4 µM] | -1%
CCOc1cc(/C=N/NC(=O)c2ccc(O)cc2)ccc1Oc1nc(Cl)ncc1F | -14 | 0.7 | -1 | -7 | -26% | -15%
O=c1c2ccccc2[nH]c(=S)n1CCC1=CCCCC1 | 2 | 0.0 | -1 | 5 | -29% | -8%
COc1cccc(C2NC(=O)NC(C)=C2C(=O)Nc2cc(OC)ccc2OC)c1 (stereo not drawn) | -2 | -1.6 | -4 | -6 | 29% | 6%
COc1ccc(S(=O)(=O)N2CCOCC2)cc1NC(=O)CN1C(=O)NC2(CCCC2)C1=O | 4 | 1.8 | -1 | 0 | -4% | 9%
CC(Oc1ccc(Cl)cc1)c1ccnc(N)n1 (stereo not drawn) | 25 | -2.5 | 1 | 0 | -16%[15.4 µM] | 4%
O=C(CN1CCC(NC(=O)c2ccccc2)CC1)NCc1ccccc1F | 10 | 0.2 | -5 | 5 | 0% | 9%
O=C(Nc1ccc([N+](=O)[O-])cc1)C(c1ccccc1)c1ccccc1 | -8 | -3.7 | -15 | -2 | -11% | ·
COC1=Nc2ccccc2N2CCN=C12 | 0 | -4.2 | -1 | -23 | · | ·
O=C1C=CC(=O)N1Cc1ccncc1 | -3 | 5.5 | -7 | 0 | 7% | 1%
CCN(CC)CCn1c(-c2ccc(C)cc2)nc(=S)c2c1CC(C)(C)OC2 | 5 | -2.4 | -6 | 3 | 5%[15.4 µM] | -10%
O=C(Nc1ccc(S(=O)(=O)N2CCCC2)cc1)C1COc2ccccc2O1 (stereo not drawn) | -2 | 8.3 | 0 | -1 | -22% | -5%
CCc1nnc(NC(=O)C2CCN(C(=O)c3ccccc3C)CC2)s1 | 0 | -4.1 | 1 | 4 | -47%[inhibitor] | 8%
Cc1cccc(N(CC(N)=O)C2SC(=O)NC2=O)c1 (stereo not drawn) | 4 | -6.0 | -13 | 3 | -4% | 2%
CCC[C@H]1COCCS(=O)(=O)N1Cc1ccccc1 | -2 | 0.1 | -2 | -13 | · | 6%
CC(O)(c1cccc(F)c1)c1nc(-c2ccc(Cl)cc2)cs1 (stereo not drawn) | 7 | 7.3 | 4 | 9 | · | ·
CS(=O)(=O)N(CC(=O)O)c1cccc(Cl)c1 | 0 | -5.8 | -7 | 5 | -5% | 7%

A section from further up, as a working copy:
SMILES | Six1-Eya2 blk | D2 ag | D2 PAM | CtBP-E1A inh | gsp ag | gsp antagonist
CCC[C@H]1COCCS(=O)(=O)N1Cc1ccccc1 | -2 | 0.1 | -2 | -13 | · | 6%
CC(O)(c1cccc(F)c1)c1nc(-c2ccc(Cl)cc2)cs1 (stereo not drawn) | 7 | 7.3 | 4 | 9 | · | ·
CS(=O)(=O)N(CC(=O)O)c1cccc(Cl)c1 | 0 | -5.8 | -7 | 5 | -5% | 7%
